Autofluor counter = counter-screen for toxin protease inhibitors: compound fluorescence; AID 624483; compound autofluorescence counterscreen, microsphere flow cytometry; hits give high values; fluorescence intensity (no concentration beside the values); hit rate 3.1% among 360,000;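 active = at least 3 SD above the mean of all compounds, about 16000 in these data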;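 also: 100 nL of 1 mM stock went into each well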
Starred values were filed as active, the others as inactive.

The opening 3 entries, to show the layout:
SMILES	Autofluor counter
Cc1cc(C)c(CN2CCN(C(=O)CC[C@H]3O[C@@H](n4ccc(=O)[nH]c4=O)[C@H](O)[C@@H]3O)CC2)c(C)c1	3998
CCN(C)C1CN(Cc2cn(Cc3ccc(Cl)cc3)nn2)S(=O)(=O)C1 (centres undefined)	4876
CC12Nc3ccccc3C(=O)N1Cc1cnnn1-c1ccccc12 (centres undefined)	5874

The listing (from the top)
SMILES	Autofluor counter
Cc1cc(C)c(CN2CCN(C(=O)CC[C@H]3O[C@@H](n4ccc(=O)[nH]c4=O)[C@H](O)[C@@H]3O)CC2)c(C)c1	3998
CCN(C)C1CN(Cc2cn(Cc3ccc(Cl)cc3)nn2)S(=O)(=O)C1 (centres undefined)	4876
CC12Nc3ccccc3C(=O)N1Cc1cnnn1-c1ccccc12 (centres undefined)	5874
COc1cccc(C(O)c2nc(-c3ccc(N(C)C)cc3)cs2)c1 (centres undefined)	2949
Cc1ccc(F)c(S(=O)(=O)NC(=O)C2(C)CCN2C(=O)c2cccc3ccccc23)c1 (centres undefined)	3450
CC(C)NC(=O)C1(C)CCN1Cc1ccc(-c2ccccc2)cc1 (centres undefined)	3901
CC1(C(=O)NS(=O)(=O)c2ccccc2)CCN1C(=O)CC1CCCCC1 (centres undefined)	3508
C[C@H](CO)N1C[C@H](C)[C@@H](CN(C)C(=O)C2CCCCC2)OCc2cnnn2CCCC1=O	3638
CNc1nc(-c2cccc(C(=O)N(C)C)c2)cn2ccnc12	3814
CC(C)C1C(=O)N(Cc2cn(CCC3OCCO3)nn2)CCS(=O)(=O)N1Cc1ccc(-c2ccc(Cl)cc2)cc1 (centres undefined)	3809
CCCNC(=O)CSc1ccc(S(=O)(=O)N(C)C2CCCCC2)cn1	4193
CCCc1nn2c(-c3ccccc3)nnc2o1	3684
O=C(Nc1ccc2c(c1)OCO2)C1Cc2c(-c3ccc(Cl)cc3)ccnc2O1 (centres undefined)	3810
Cc1cccc(NC(=O)c2nc[nH]c2C(=O)NC[C@@H](C)O)c1	3619
CC(=O)Nc1cc(-c2ccc(C(=O)N3CCOCC3)cc2)cn2c(-c3ccc(C(C)=O)cc3)cnc12	3375
OC[C@H]1O[C@@H](c2nc(-c3ccc(C4OCCO4)cc3)no2)[C@H](O)[C@@H]1O	2904
COc1ccc(C(O)c2cnc(C)n2Cc2ccccc2)cc1 (centres undefined)	4123
Cc1ccccc1C(=O)NCC(=O)OCC(=O)NNC(=O)c1ccccc1F	3862
CCN(CC)C(=O)C1=C(C)N(CCCN2CCCC2=O)C(=O)C(CC(=O)NCc2cccc3ccccc23)C1 (centres undefined)	3437
COc1cccc(C(c2nnnn2C(C)(C)C)N2CCN(C/C=C/c3ccccc3)CC2)c1OC (centres undefined)	5460
CCCNC(=O)N(C)C[C@@H]1Oc2cc(Br)ccc2S(=O)(=O)N([C@@H](C)CO)C[C@H]1C	3935
CCOc1cc(OCC)cc(C(=O)N2CCC[C@H]2C(=O)N2CCC[C@H]2C(=O)NCc2ccncc2)c1	6149
Cc1cccc(NC(=O)CSc2nc3ccccc3c(=O)n2C)c1C	3639
CC(C)C[C@@H](CN1CCC[C@H]1CN1C(=O)C(=O)NC[C@@H]1Cc1ccccc1)N1C[C@H](Cc2ccccc2)N(CC2CCCCC2)C(=O)C1=O	4153
COc1ccc(Cl)cc1-c1cc(C(=O)NCc2ccco2)[nH]n1	4027
COc1ccc(C(O)c2nc(-c3ccccc3C)cs2)cc1 (centres undefined)	4092
COc1ccc(C=O)c(-c2c(-c3ccccc3OC)sc3ccccc23)c1	5744
CCCCn1nnnc1C(c1ccccc1)N1CCN(c2cccc(C)c2C)CC1 (centres undefined)	5081
C[C@@H]1CCCCO[C@@H](CN(C)C(=O)c2ccncc2)[C@@H](C)CN([C@H](C)CO)C(=O)c2cc(NC(=O)Cc3ccccc3)ccc2O1	3614
O=c1cc(CO)[nH]nc1CO	3739
Cc1ccc2cc(NC(=O)C3(C)CCN3C(C)C)ccc2n1 (centres undefined)	3968
CCOC(=O)[C@]12CCCC=C1N(Cc1ccc(Cl)cc1Cl)C(=O)[C@H](CC(=O)NCCCCc1ccccc1)C2	6005
COc1cccc(C(C)(O)c2nc(-c3cccc(NC(C)=O)c3)cs2)c1 (centres undefined)	3409
Cc1cccc(S(=O)(=O)NC(=O)C2(C)CCN2C(=O)Cc2ccccc2)c1 (centres undefined)	3890
COc1ccc(NC(=O)C2(C)Cc3c(-c4ccccc4)ccnc3O2)cn1 (centres undefined)	3769
CC(C)Nc1nc(-c2ccccc2CO)c2sccc2n1	3513
CCOC(=O)C1(C)CCN1C(=O)c1ccccc1C (centres undefined)	3421
CC(C)NC(=O)c1csc(COCCO)n1	4087
CC(C)Oc1cc(F)ccc1-c1cc(C(=O)NCc2cccs2)[nH]n1	3954
CCc1ncc(CO)n1Cc1cccc2ccccc12	2908
CC1(C(=O)Nc2ccc3nc[nH]c3c2)CCN1C(=O)C/C=C/c1ccccc1 (centres undefined)	3522
COc1ccc(C(N)c2csc(Nc3ccc(S(C)(=O)=O)cc3)n2)cc1 (centres undefined)	3402
CCc1nc2ccc(C(=O)NCCCn3ccnc3)cn2c1N(C)Cc1nccs1	3861
CSc1ccc(CNC(=O)C2(C)CCCN(C(C)C)C2)cc1 (centres undefined)	3689
CC(C)C(C(=O)O)N1C(=O)C2C3CCC(C3)C2C1=O (centres undefined)	2907
Nc1nc(N)c2cc(Sc3ccc(Cl)cc3)ccc2n1	3925
COc1ccc([C@H]2CN(Cc3ccccc3)C(=O)[C@@H]2CC(=O)Nc2ccccc2)cc1	3909
COc1ccc(S(=O)(=O)N2CCCCC2c2cc(C(=O)Nc3ccccc3Cl)no2)cc1 (centres undefined)	4099
CSc1ccc(Cn2c(C)c(C(=O)NCc3ccco3)sc2=O)cc1	3921
CC[C@H](C)[C@@H](CO)NC(=O)[C@H]1O[C@@H](n2ccc(N)nc2=O)[C@H](O)[C@@H]1O	6049
COCC(C)n1c(SCC(=O)Nc2cccnc2Cl)nc2ccccc2c1=O (centres undefined)	4003
Cc1ccc(OCC(=O)Nc2cccc(S(=O)(=O)N3CCCC3)c2)cc1C	3903
CC(C)(C)c1ccc(C(=O)N2CCC2(C)C(=O)Nc2cnc3ccccc3c2)cc1 (centres undefined)	3079
COc1ccc(-c2ccc3c(c2)CN(C(=O)CCc2ccccc2)Cc2cnnn2-3)cc1	6934
NC(=O)c1ccc(-c2ccc(N3C(c4ccsc4)=Cc4ccc(F)cc4C3CC(=O)c3ccco3)cc2)cc1 (centres undefined)	4166
OC(c1ccc(F)c(F)c1)c1nc(-c2cccc(C(F)(F)F)c2)cs1 (centres undefined)	3963
CCCCC[C@H](C)N1C[C@@H](COCc2ccccc2)Oc2cc(N3CC[C@@H](O)C3)ccc2S1(=O)=O	4780
O=C([C@H]1O[C@@H](n2ccc(=O)[nH]c2=O)[C@H](O)[C@@H]1O)N1CCSC1	5757
CCc1nc2ccc(C(=O)Nc3ccc(OC)c(OC)c3)cn2c1N(CC)CCOC	3978
Cc1ccc(NS(=O)(=O)c2ccc(-n3cccn3)cc2)c(Cl)c1	3836

Remaining list, next part
SMILES	Autofluor counter
CCc1ccccc1NC(=O)C1CCN(S(=O)(=O)c2ccc(N3CCCC3=O)cc2)CC1	3969
COc1ccc(-c2csc(C(O)c3ccccc3)n2)cn1 (centres undefined)	3430
COc1ccc(CC(=O)N2CCN(C(=O)Cc3ccc(OC)c(OC)c3)CC2)cc1OC	2842
COc1ccc(-c2csc(C(O)c3ccccc3)n2)cc1 (centres undefined)	3030
CCCCN1C(=O)C(CC(=O)NC2CCCC2)CC(C(=O)N2CCCCCC2)=C1C (centres undefined)	4310
Nc1ccc(CC(N)c2csc(Nc3ncccn3)n2)cc1 (centres undefined)	3731
CC(C)Oc1ccc(F)cc1-c1cc(C(=O)NCc2cccs2)[nH]n1	4015
Cc1cccc(COC[C@H](Cc2ccccc2)N2CCN(C(=O)c3cccc(Cl)c3)CCC2=O)c1	5989
CC1(C(=O)NS(C)(=O)=O)CCN1C(=O)CC(c1ccccc1)c1ccccc1 (centres undefined)	3716
CC1(C(=O)NS(=O)(=O)c2ccc(C#N)cc2)CCN1C(=O)c1cccc(F)c1 (centres undefined)	3520
CC(C)C[C@H]1CNC(=O)C(=O)N1CC1CCN(CCC(C)c2ccccc2)CC1 (some centres undefined)	6599
CCCCC[C@@H](C)N1C[C@H](COCc2ccccc2)Oc2cc(N3CCC[C@@H]3CO)ccc2S1(=O)=O	5119
Cc1ccc2cc(C(c3nnnn3CC3CCCO3)N3CCCC4(CCCCC4)C3)c(=O)[nH]c2c1 (centres undefined)	9569
FC(F)c1nc2nc(Cl)c(Cl)nc2[nH]1	3714
CC12CCC(=O)C=C1CCC1C2C(O)CC2(C)C1CCC2(O)C(O)CO (centres undefined)	5612
C[C@@H]1CN([C@@H](C)CO)C(=O)CCCn2nncc2CO[C@H]1CN(C)S(=O)(=O)c1ccccc1F	3811
CCc1nc2c(OCc3ccc(C(F)(F)F)cc3)cccn2c1N(C)C(=O)c1ccncc1	2955
COC(=O)c1cccc(NC(=O)/C(=C\c2ccco2)NC(=O)c2ccco2)c1	3527
Cn1c(NCc2ccc3occc3c2)nc2cc(-c3cccc(C(F)(F)F)c3)sc2c1=O	3491
CCCCC[C@H]1CCCCC[C@@H](O)C[C@H](O)[C@H](O)/C=C/C(=O)O1	5983
CCc1ccccc1Oc1nc(NC(C)C)nc2ccsc12	4045
CC(C)NC(=O)OC1CC2CC1[C@H]1CCCCN1C2=O (some centres undefined)	5354
COc1ccc(C(C)(O)c2nc(-c3ccc(OC)nc3)cs2)cc1 (centres undefined)	3671
CC(C)(O)C#Cc1ccc(N2C(c3ccsc3)=Cc3ccc(F)cc3C2c2c[nH]c3ccccc23)cc1 (centres undefined)	4838
CC1CCN(c2ccc3c(c2)S(=O)(=O)c2cc(C(=O)O)ccc2C3=O)CC1	3618
CNC(=O)C1(C)Cc2c(-c3ccc4c(c3)OCO4)ccnc2O1 (centres undefined)	3775
COc1ccc(C(NC(=O)C2CCN(CCCOc3ccccc3)CC2)c2ccccn2)cc1 (centres undefined)	3697
CC(=O)Nc1ccc(C(=O)N2CCCCC2c2cc(C(=O)Nc3ccccc3Cl)no2)cc1 (centres undefined)	3357
c1cnc2c(-c3cccc4nccn34)cccc2c1	2979
CCc1nc2ccc(C(=O)N3CCN(S(=O)(=O)CC)CC3)cn2c1N(C)CCC(C)C	3441

Individual results from above.
For Autofluor counter, CCCCC[C@@H](C)N1C[C@H](COCc2ccccc2)Oc2cc(N3CCC[C@@H]3CO)ccc2S1(=O)=O has the entry 5119
For Autofluor counter, C[C@H](CO)N1C[C@H](C)[C@@H](CN(C)C(=O)C2CCCCC2)OCc2cnnn2CCCC1=O has the entry 3638
For Autofluor counter, Cc1ccc(OCC(=O)Nc2cccc(S(=O)(=O)N3CCCC3)c2)cc1C has the entry 3903
For Autofluor counter, CC(C)C[C@H]1CNC(=O)C(=O)N1CC1CCN(CCC(C)c2ccccc2)CC1 (some centres undefined) has the entry 6599
For Autofluor counter, FC(F)c1nc2nc(Cl)c(Cl)nc2[nH]1 has the entry 3714
For Autofluor counter, Cc1cccc(COC[C@H](Cc2ccccc2)N2CCN(C(=O)c3cccc(Cl)c3)CCC2=O)c1 has the entry 5989
For Autofluor counter, C[C@@H]1CN([C@@H](C)CO)C(=O)CCCn2nncc2CO[C@H]1CN(C)S(=O)(=O)c1ccccc1F has the entry 3811

New compounds follow:
SMILES	Autofluor counter
CCCCNC(=O)c1cnc(Cc2c[nH]c3ccccc23)c(I)c1	3340
CCOC(=O)C1CCN(C(=O)c2[nH]c(C(F)(F)F)nc2-c2ccccc2)CC1	4345
O=C(NCc1ccc(F)cc1)c1cc(C2CCCCN2C(=O)C2CCCCC2)on1 (centres undefined)	3665
O=C1NC[C@@H](CCCCN2C[C@H](Cc3ccc(O)cc3)N(CCC3CCCCC3)C(=O)C2=O)N(CCC2CCCCC2)C1=O	4271
Cc1cccc(OCC(O)CN2CC2)c1 (centres undefined)	3916
CC1(C(=O)NS(=O)(=O)c2cccs2)CCN1C(=O)c1cccc(F)c1 (centres undefined)	3359
CC1(C(=O)NS(=O)(=O)Cc2cccc(Cl)c2)CCN1C(=O)C1(c2ccc(Cl)cc2)CC1 (centres undefined)	3903
CCCCNC(=O)c1nc(C2CCN(S(=O)(=O)c3ccccc3C(F)(F)F)CC2)oc1-c1cccc(C(F)(F)F)c1	6036
CC(C)C[C@H]1COc2cccc(N3CCSCC3)c2S(=O)(=O)N1	5347
CC(C)CC1C(=O)N(Cc2cn(CCC3OCCCO3)nn2)CCS(=O)(=O)N1Cc1ccc(-c2ccncc2)cc1 (centres undefined)	2767
O=C(Nc1ccc2c(c1)OCO2)c1cc(C2CCCCN2C(=O)CCc2ccccc2)on1 (centres undefined)	3853
CCCCCCSc1ccc(-c2nc3ccc(C)cn3c2NCCCC)cc1OC	4587
CCCCOc1ccc(C(=O)NCC(=O)OCCCOC(=O)CNC(=O)c2ccc(OCCCC)cc2)cc1	3413
CCOC(=O)N(C)C[C@@H]1OCc2cn(nn2)CCCC(=O)N([C@@H](C)CO)C[C@H]1C	3674
Cc1cccc(S(=O)(=O)NC(=O)C2(C)CCN2C(=O)c2sccc2C)c1 (centres undefined)	3539
COc1ccc(NC(=O)C2(C)Cc3c(-c4cccc(NC(C)=O)c4)ccnc3O2)cc1OC (centres undefined)	3022
CCC(=O)N1CCCC1(C)C(=O)Nc1ccc(C)c(C)c1 (centres undefined)	3981
COc1cc(NC(=O)c2cccc3c(-c4cccnc4)coc23)cc(OC)c1OC	2992
OC(c1ccccc1)c1nc(-c2ccc3c(c2)OCO3)cs1 (centres undefined)	3004
CCCCCn1nnnc1-c1nc2cc3ccccc3cc2[nH]c1=O	5190
Cc1ccc(S(=O)(=O)N2C[C@H]3n4c(=O)ccc(=O)n4C[C@H](OC(=O)NCc4ccccc4)[C@@]3(O)C2)cc1	3927
Cc1cccc(-c2cccc3nccn23)c1	3635
CCOC(=O)C1=CCN(S(=O)(=O)c2ccc(Cl)cc2)C1c1ccc(C)cc1 (centres undefined)	4067

Screening data: PubChem BioAssay, NMMLSC

An excerpt. The share of hits here may be higher or lower than overall.
